Screens (PubChem)
MgrA DNA FP = S. aureus MgrA-DNA binding modulation | fluorescence polarization | inhibition, %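 (about 10 µg/mL by stock and volumes)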 | 84,000 compounds, 0.13% hits | AID 602314;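 active means above 50% in either of two replicates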;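 further: 0% = protein plus DNA without compound and 100% = DNA alone without protein; higher means less MgrA bound to DNA so lower polarization; one replicate is shown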
Sa helicase inh = S. aureus DNA helicase inhibition | purified S. aureus helicase, fluorescence unwinding assay; about half of the hits fall short of the stated cut | AID 485395 | 120,000 compounds, 0.05% hits | inhibition, %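 (tested at about 80 µM)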;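 active means both duplicates at 50% or more, or one of them with a favoured structure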;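 further: 0% = mean of negative control wells and 100% = mean of positive control wells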
* hit, by the source's call; . = no result given. Not all compounds are listed; rates above refer to the full screens.

Sample of the layout:
SMILES	MgrA DNA FP	Sa helicase inh
CN(C)C(=O)C1Cc2ccccc2CN1S(=O)(=O)c1ccc(F)cc1 (stereo unspecified)	3.0	3
CCN1/C(=C2\C(=O)N(c3ccc(Cl)cc3)N=C2C)C=Cc2ccccc21	-0.9	0
CCc1ccc2[nH]c(=O)c(C(c3nnnn3C(C)(C)C)N3CCc4ccccc43)cc2c1 (stereo unspecified)	8.4	6
CC1CCCC(NC(=O)CNC(=O)c2cccs2)C1C (stereo unspecified)	.	-6
COc1ccc(CCN2C(=O)CSC2c2ccc(OC)c(OC)c2)cc1OC (stereo unspecified)	0.6	.
CSc1nnc(SCC(=O)Nc2c(C#N)c(C)c(C)n2Cc2ccco2)s1	.	-8
CC(C)(C)c1cc2ncnc(NCc3ccc4c(c3)OCO4)c2s1	0.7	.
CCCCC[C@H](O)/C=C/[C@H]1C=CC(=O)[C@@H]1C/C=C\CCCC(=O)O	-1.6	.
CC(OC(=O)c1ccco1)C(=O)Nc1ccc(Cl)cc1 (stereo unspecified)	.	6
CCN(CC)C(=O)Sc1nc2cc(Cl)ccc2s1	0.2	.
Cc1noc(C)c1COC(=O)/C(=C/c1cccs1)c1cccs1	.	29
CCOC(=O)NC(=S)NCCC1CCNCC1	-2.5	.
CCOc1cc(C(F)(F)F)c(C(=O)N(C)Cc2c(OC)cccc2OC)cn1	.	-10
CCc1ccccc1NC(=O)C1CCCN1S(=O)(=O)c1ccc2c(c1)n(C)c(=O)c(=O)n2C (stereo unspecified)	.	18
CS(=O)(=O)c1ccccc1C(=O)N1CCN(Cc2ccccc2)CC1	.	3
C(=C1/CCCC2C(c3ccccc3)C3=C(CCCC3)OC12N1CCCC1)/c1ccccc1 (stereo unspecified)	-2.1	.

This part in full, repeating the preview:
SMILES	MgrA DNA FP	Sa helicase inh
CN(C)C(=O)C1Cc2ccccc2CN1S(=O)(=O)c1ccc(F)cc1 (stereo unspecified)	3.0	3
CCN1/C(=C2\C(=O)N(c3ccc(Cl)cc3)N=C2C)C=Cc2ccccc21	-0.9	0
CCc1ccc2[nH]c(=O)c(C(c3nnnn3C(C)(C)C)N3CCc4ccccc43)cc2c1 (stereo unspecified)	8.4	6
CC1CCCC(NC(=O)CNC(=O)c2cccs2)C1C (stereo unspecified)	.	-6
COc1ccc(CCN2C(=O)CSC2c2ccc(OC)c(OC)c2)cc1OC (stereo unspecified)	0.6	.
CSc1nnc(SCC(=O)Nc2c(C#N)c(C)c(C)n2Cc2ccco2)s1	.	-8
CC(C)(C)c1cc2ncnc(NCc3ccc4c(c3)OCO4)c2s1	0.7	.
CCCCC[C@H](O)/C=C/[C@H]1C=CC(=O)[C@@H]1C/C=C\CCCC(=O)O	-1.6	.
CC(OC(=O)c1ccco1)C(=O)Nc1ccc(Cl)cc1 (stereo unspecified)	.	6
CCN(CC)C(=O)Sc1nc2cc(Cl)ccc2s1	0.2	.
Cc1noc(C)c1COC(=O)/C(=C/c1cccs1)c1cccs1	.	29
CCOC(=O)NC(=S)NCCC1CCNCC1	-2.5	.
CCOc1cc(C(F)(F)F)c(C(=O)N(C)Cc2c(OC)cccc2OC)cn1	.	-10
CCc1ccccc1NC(=O)C1CCCN1S(=O)(=O)c1ccc2c(c1)n(C)c(=O)c(=O)n2C (stereo unspecified)	.	18
CS(=O)(=O)c1ccccc1C(=O)N1CCN(Cc2ccccc2)CC1	.	3
C(=C1/CCCC2C(c3ccccc3)C3=C(CCCC3)OC12N1CCCC1)/c1ccccc1 (stereo unspecified)	-2.1	.
O=C(NCCn1ccc2ccccc21)c1ccc2c(c1)OCO2	.	-18
O=c1[nH]c2ccccc2c(O)c1C=Nc1ccccc1	1.0	.
CCCn1c(SCc2cc(=O)oc3ccc4ccccc4c23)n[nH]c1=O	.	9
CCCCS(=O)(=O)Nc1ccc(C(=O)OC(C)C)cc1	-2.6	7
N#CC1C(C#N)N2CCCN2C1c1ccc(Cl)cc1 (stereo unspecified)	3.8	14
COc1cc(C(=O)N2CCN(Cc3c[nH]c4ccccc34)CC2)cc(OC)c1OC	.	2
CC(Sc1nc2cc(Cl)ccc2c(=O)n1Cc1ccco1)C(=O)N1CCc2ccccc2C1 (stereo unspecified)	.	2
CCCCN1C(=O)c2ccc(C(=O)Nc3c(N)n(CCCC)c(=O)n(C)c3=O)cc2C1=O	.	13
COc1ccccc1NC(=O)N1CCN2C(=O)c3ccccc3C12c1ccccc1 (stereo unspecified)	-2.0	8
COc1ccc(C2CC(=O)c3cnc(NCCN4CCOCC4)nc3C2)cc1 (stereo unspecified)	1.4	24
CN1C=NC2C1C(=O)N(CCn1c(=O)c3c(ncn3C)n(C)c1=O)C(=O)N2C (stereo unspecified)	-1.0	-13
O=C(NC1CCCC1)c1ccc2c(c1)N(Cc1ccccc1)C(=O)CS2	1.1	12
O=C(Nc1nnc(-c2ccc(Cl)cc2)o1)c1ccc2ncsc2c1	.	14
COc1ccc(CC(=O)n2nc(N)c3cc4ccc(OC)cc4nc32)cc1	.	4
CN1CCN(Cc2c(O)ccc3c4c(c(=O)oc23)CCCC4)CC1	.	11
O=C(Cn1nnc2sc3c(c2c1=O)CCCC3)NC1CCCCC1	.	11
CN(C)C(=O)COC(=O)c1cccc(CN2C(=O)c3ccccc3C2=O)c1	.	6
CCc1cccc(C)c1NC(C)=O	-1.3	5
COc1ccc2c(C)cc(SCc3nc4ccccc4c(=O)n3CC#N)nc2c1	.	-6
CSc1cccc(NS(=O)(=O)c2ccccc2)c1	.	27
Cc1nc2c3ccccc3n3c(CCCC(=O)NCc4ccccn4)nnc3n2n1	.	8
CCOC(=O)/C(C#N)=C1\Nc2ccccc2C1=O	0.2	-11
CN(C)C1(CNC(=O)c2ccc3c(c2)SC2=NS(=O)(=O)CCN23)CCCCC1	.	-8
CCCCS(=O)c1sc2nc(C)cc(C)c2c1N (stereo unspecified)	.	4
Cc1[nH]c2ccc(C(C)C)cc2c1CC(=O)O	0.7	.
O=C(N=C1SCC(=O)N1c1ccccc1)c1ccccc1	.	12
O=c1/c(=C\c2cn(Cc3ccc(Cl)cc3Cl)nc2-c2ccccc2)sc2nc3ccccc3n12	-0.2	.
C#C[C@]1(OC(C)=O)CC[C@H]2[C@@H]3CCC4=C[C@@H](OC(C)=O)CC[C@@H]4[C@H]3CC[C@@]21C	0.5	.
COC(=O)c1cc(NC(=O)c2ccccc2)ccc1N1CCOCC1	-2.5	.
CC(C)(C)OC(=O)N/N=C1\CCCCc2ccccc21	.	-13
O=C(NCc1cccs1)c1cc(=O)n(Cc2ccc(Cl)cc2)c2ccccc12	0.9	11
CCSCCOC(=O)C1=C(C)NC2=C(C(=O)CC(c3ccc(OC)cc3)C2)C1c1cc2c(cc1[N+](=O)[O-])OCO2 (stereo unspecified)	1.7	.
COc1ccc(-n2ncc(C(=O)NCc3ccc(-c4cccs4)cc3)c2C)cc1	-1.8	.
Cc1ccc(-c2nn(C)c(=O)c3ccccc23)cc1CO	.	1
The results go on.
SMILES	MgrA DNA FP	Sa helicase inh
CC[C@H]1OC(=O)[C@H](C)[C@@H](O[C@H]2C[C@@](C)(OC)[C@@H](O)[C@H](C)O2)[C@H](C)[C@@H](O[C@@H]2O[C@H](C)C[C@H](N(C)C)[C@H]2O)[C@](C)(O)C[C@@H](C)[C@@H]2N[C@@H](COCCOC)O[C@H]([C@H]2C)[C@]1(C)O	3.1	.
O=C(Nc1cccc(-n2cnnn2)c1)C1CCCN1C(=O)c1cccs1 (stereo unspecified)	.	-1
CCC1CCCCN1S(=O)(=O)c1c(C)cc(C)cc1C (stereo unspecified)	.	8
Cc1ccc(S(=O)(=O)N2CCN(C(=O)C3CCC(=O)N3)CC2)cc1 (stereo unspecified)	.	-3
CCNc1cccc(C)c1	1.8	-26
Cc1csc(NC(=O)c2ccc(S(=O)(=O)N3CCc4ccccc4C3)cc2)n1	.	-13
CCOC(=O)Nc1nc2ccc(C)cc2s1	1.6	14
CC(O)c1nc2ccccc2n1C (stereo unspecified)	.	-19
CC(NC(=S)NCCc1ccc(S(N)(=O)=O)cc1)C12CC3CC(CC(C3)C1)C2 (stereo unspecified)	2.3	1
O=C(O)CSc1ccc2c(c1)CCC2	.	1
CCc1nnc2c3ccccc3nc(-c3ccncc3)n12	-0.7	-5
CCN(C(=O)CCc1nc(-c2ccccc2F)no1)c1ccc(C)c(C)c1	.	14
COc1ccc(NC(=O)c2c[nH]n3c(=O)cc(C4CCNCC4)nc23)cc1Cl	.	10
O=S(=O)(Nc1ccc2nc[nH]c2c1)c1ccccc1	3.5	0
CCC(C)NC(=O)CSc1nnc(Nc2ccc(C(C)C)cc2)s1 (stereo unspecified)	.	-9
CCOC(=O)C1(c2ccc(OC)cc2)CCOCC1	-1.8	22
CCN1CCN(C(=O)c2cc3cc(OC)ccc3oc2=O)CC1	2.0	4
O=C(NCc1ccccc1Cl)C1CCCN1C(=O)NCc1ccccc1 (stereo unspecified)	0.9	5
O=C(OCn1nnc2ccccc2c1=O)c1ccc(S(=O)(=O)N2CCOCC2)cc1	.	10
CNC(=O)C1=C(C)NC(=O)NC1c1cccs1 (stereo unspecified)	-2.2	15
O=C(Oc1ccc2c(c1)OCO2)c1ccco1	.	-6
CCOc1cc(N2CCOCC2)c(OCC)cc1NC(=O)CCNS(=O)(=O)c1cc(C)ccc1C	.	13
CC(=O)NCC(c1cccs1)N1CCc2ccccc21 (stereo unspecified)	.	1
CCOC(=O)C1CCCN(C(=O)S(=O)(=O)c2ccc(-c3csc(C)n3)s2)C1 (stereo unspecified)	.	-6
O=C(O)Cn1c(SCCOc2ccc3ccccc3c2)nc2ccccc21	1.3	.
Cc1cccc(OCC(=O)O/N=C(\N)c2ccncc2)c1	.	34
Cc1c2c(=O)n(-c3ccccc3)[nH]c2cc(=O)n1CC1CCCO1 (stereo unspecified)	0.0	4
OC(c1cc(C(F)(F)F)cc(C(F)(F)F)c1)c1cc(C(F)(F)F)cc(C(F)(F)F)c1	-0.7	.
CCCCN1Cc2c(nc3cc(-c4ccccc4)[nH]n3c2=O)C1=O	-0.1	.
Cc1c(-c2ccc3ccccc3n2)sc2ncnn12	0.7	.
O=c1[nH]c(Cn2c(-c3cncs3)nc3ccccc32)nc2ccccc12	.	-8
Cc1csc(N(C)C(=O)CSc2nnc(COc3cccc4ccccc34)o2)n1	-1.2	5
CN(C)C=Nc1cc(Cl)c(-n2cccc2)cc1Oc1ccc(Cl)cc1	4.6	.
CCOC(=O)Cc1ccc(NC(=O)N2CCC(CN3CCc4ccccc4C3)CC2)cc1	0.1	5
COc1ccc(N2CCN(CCCNC(=O)CN3C(=O)CCSc4ccccc43)CC2)cc1	8.3	-10
O=C(NC(=O)N1CCSC1)c1c(F)cccc1F	-2.6	.
Cc1csc(=O)n1CCCC(=O)O	.	-6
CCOc1ccc(/C=C/C(=O)Nc2cc3c(cc2N2CCCCC2)n(C)c(=O)c(=O)n3C)cc1	.	-9
c1cncc(C(N2CCOCC2)N2CCOCC2)c1	-3.2	.
O=C(c1ccc(Cn2c(=S)[nH]c3cc4c(cc3c2=O)OCO4)cc1)N1CCN(c2ncccn2)CC1	.	-2
COC(=O)c1ccc(CSc2nc3ccc(Cl)cc3[nH]2)o1	.	9
CCn1c(=O)c(=O)n(CC)c2cc(S(=O)(=O)NCc3ccc(OC)cc3)ccc21	.	4
CCn1c(COC(=O)CCc2ccc(OC)c(OC)c2)nc2cc(S(=O)(=O)N(C)C)ccc21	.	-5
O=C(NCCCN1CCCCC1)c1ccc2c(=O)n3c(nc2c1)CCCCC3	0.6	-9
FC(F)(F)Oc1ccc(-c2cn3cccnc3n2)cc1	-3.8	.
Cc1nc(/N=C(\NC(=O)c2ccccc2)Nc2ccccc2)[nH]c(=O)c1C	1.8	-12
COC(=O)CC(N)c1ccc(Cl)cc1 (stereo unspecified)	-3.8	19
CCNC(=S)N1CCC(C(N)=O)CC1	0.4	3
Cc1ccc(-c2cn3cccnc3n2)cc1NC(=O)c1ccccc1	-1.3	14
O=C(c1ccccc1NS(=O)(=O)c1ccc(F)cc1)N1CCCCC1	1.6	-13
Next section.
SMILES	MgrA DNA FP	Sa helicase inh
C=CCOC(=O)C1=C(C)NC(SCC(=O)OCC)=C(C#N)C1c1cccs1 (stereo unspecified)	.	0
Cc1cc(=O)[nH]c(Sc2c(C)c3cc4c(cc3[nH]c2=O)OCO4)n1	.	6
COc1ccc(-c2noc(CC(=O)NC3CC3)n2)cc1	.	20
O=C(OCN1C(=O)c2ccccc2C1=O)c1ccc(-n2cnnn2)cc1	.	5
COCCOC(=O)C1=C(C)NC2=C(C(=O)CC(c3ccc(OC)cc3)C2)C1c1cc(OC)c(OC)c(OC)c1 (stereo unspecified)	-1.8	.
COC(=O)c1cc(COC(=O)c2ccc(Cl)cc2)oc1C	.	-16
OCc1nnc2c3ccccc3c(-c3ccccc3)nn12	-1.6	17
CN(C)CCOC(=O)c1ccccc1C(=O)O	.	-12
CCOC(=O)c1ccc(N2C(=O)C(C)C(Cc3cc(C)cc(C)c3)C2=O)cc1 (stereo unspecified)	-1.2	10
NS(=O)(=O)c1ccc(CCNC(=O)Nc2cccc(Cl)c2)cc1	.	13
CCOC(=O)c1oc2ccc(Br)cc2c1CSc1nnc(N)s1	.	8
Cc1ccc2c(CN3C(=O)C4CC=CCC4C3=O)cc(=O)oc2c1C (stereo unspecified)	-0.3	-1
COCCn1c(C)cc(C(=O)CSc2nc(-c3ccccc3)cs2)c1C	.	4
CC(C)n1c(NCc2ccccc2)nc2ccccc21	-2.8	12
CCCCc1cc(O)c(CCCC)c(O)c1	0.3	15
Cn1cnnc1SCC(=O)N(CC1CCCO1)c1nc(-c2ccc(Br)cc2)cs1 (stereo unspecified)	.	-7
CCn1nc(C)cc1C(=O)Sc1ccc(C(F)(F)F)cn1	1.3	.
CCN(CC)c1ccc(NC(=S)Nc2ccc(OC)cc2)c(C)c1	0.5	.
Nc1cc(C(=O)O)c2ccccc2n1	0.9	-4
CCN(c1ccc(NC(=O)COC(=O)c2ccc(N(C)C)cc2)cc1)C(C)C	.	-9
Cc1ccc(Sc2ncccc2-c2nnc(-c3ccccc3)o2)cc1	-1.8	.
O=C(NCCOc1nnc(-c2ccccc2)o1)c1c(F)cccc1F	.	-12
